# From PubChem
# GIV-Gai inh: blocks GIV peptide binding to rat Galpha-i3. Galpha-i3/FITC-GIV peptide fluorescence polarization, 90 min; hits give low values; scaled: aluminum fluoride 0%, vehicle 100%. P08753. AID 1224905. 210,000 tested, 0.42% active. percent of control (FP), % (concentration not given with the values);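 active = replicate mean at 85% of control or lower, very high polarization wells dropped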;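 note: wells of about 15 µL received 100 nL stock; the first replicate is given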
# Target sequence (P08753 whole entry, looked up): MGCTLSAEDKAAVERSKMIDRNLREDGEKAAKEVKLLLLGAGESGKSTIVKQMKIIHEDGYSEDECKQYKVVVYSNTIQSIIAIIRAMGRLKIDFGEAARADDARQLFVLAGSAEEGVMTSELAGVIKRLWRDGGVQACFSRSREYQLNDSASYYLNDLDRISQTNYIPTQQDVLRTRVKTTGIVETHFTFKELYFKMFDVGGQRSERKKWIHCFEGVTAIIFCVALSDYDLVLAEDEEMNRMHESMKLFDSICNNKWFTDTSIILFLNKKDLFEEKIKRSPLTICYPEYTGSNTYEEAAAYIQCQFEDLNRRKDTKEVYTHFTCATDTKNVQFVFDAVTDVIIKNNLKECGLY
# HCMV NEC inh: inhibitors of HCMV UL50-UL53 nuclear egress complex interaction; 190,000 tested, 0.15% active; HTRF UL50-UL53 interaction, normalized percent inhibition; AID 1918969; inhibition, % (concentration not given with the values);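 active = both replicates at 50% or more, plus weaker picks with an unusually low signal ratio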;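 note: stock transfer was 100 nL into about 20 µL; 0% = negative control wells and 100% = wells with untagged competitor protein; inactives centre near -12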
# Sa growth 42C: blocks Staphylococcus aureus growth; S. aureus RN4220 growth, OD600, 20 h, 42 °C; hits give low values; relative growth, % (concentration not given with the values); 170,000 tested, 0.53% active; AID 720641;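 active = growth at 42 °C up to 50% and 20 or more points under that at 30 °C, or under 10% at both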;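 note: 300 nL library stock went into each well; scaled to the means of positive and negative controls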
# Sa growth 42C second temp: also measured in Sa growth 42C; calls as there; relative growth, %; measured here: growth at 30 °C;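 optical density after 20 h as mean of two plates; 100% = untreated growth and lower means inhibition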
# * hit, by the source's call; · = not tested or not shown.
# Preview:
No.	canonical_smiles	HCMV NEC inh	GIV-Gai inh
1	CC(=O)N1CCc2cc(C(=O)O)ccc21	-28	·
2	Cc1sc(NC(=O)c2cc3n(n2)C(C(F)(F)F)CC(c2cccs2)N3)c(C(=O)OC(C)C)c1C (stereo unspecified)	2	100
3	Cc1ccc(Cl)cc1NC(c1ccc(F)cc1)c1nnc(-c2ccccc2)o1 (stereo unspecified)	·	105
4	Cn1nnnc1SCC(=O)NC(C(=O)O)(c1ccccc1)c1ccccc1	1	99
5	Cc1ccc(CC2SC(=Nc3ccccc3)NC2=O)cc1 (stereo unspecified)	-12	102
6	Cc1cc(Br)ccc1NC(=O)C1CCN(C(=O)c2cccn2-c2cccnc2)CC1	3	110
7	CC(Sc1nnc(-c2ccco2)n1Cc1ccccc1)c1nc2ccccc2c(=O)[nH]1 (stereo unspecified)	-11	·
8	COC(=O)c1ccc(C)c(NC(=O)C(C)Sc2ccccc2)c1 (stereo unspecified)	15	107
9	Nc1cnc2cccc3c2c1-c1ccccc1C3=O	-60	-74*
10	CCCC(=O)c1ccc(-c2ccccc2)cc1	-18	104
11	O=C(Nc1ccc(Br)cn1)c1ccccc1	-8	102
12	Cc1cc(-c2nn3c(-c4ccccn4)nnc3s2)c2ccccc2n1	-40	103
13	COc1ccc(NC(=O)C(NS(=O)(=O)c2cccc3nsnc23)c2ccccc2)cc1 (stereo unspecified)	-98	103
14	Cc1cccc(N(C)Cc2nnc(-c3ccccc3Cl)o2)c1	-6	102
15	NC(=NCc1ccco1)NC(=O)c1ccc(Cl)cc1	·	100
16	Cc1ccc(-c2cc(-c3nc4c5ccccc5ncn4n3)[nH]n2)c(C)c1	-20	104
17	COC(=O)C1CCN(S(=O)(=O)c2cccc3nsnc23)CC1	-114	101

No.	Sa growth 42C	Sa growth 42C second temp
1	109	75
2	·	·
3	77	101
4	90	88
5	·	·
6	·	·
7	79	90
8	100	94
9	79	88
10	·	·
11	87	88
12	·	·
13	110	85
14	90	95
15	99	92
16	·	·
17	97	81

# Results, from the first entry:
No.	canonical_smiles	HCMV NEC inh	GIV-Gai inh
1	CC(=O)N1CCc2cc(C(=O)O)ccc21	-28	·
2	Cc1sc(NC(=O)c2cc3n(n2)C(C(F)(F)F)CC(c2cccs2)N3)c(C(=O)OC(C)C)c1C (stereo unspecified)	2	100
3	Cc1ccc(Cl)cc1NC(c1ccc(F)cc1)c1nnc(-c2ccccc2)o1 (stereo unspecified)	·	105
4	Cn1nnnc1SCC(=O)NC(C(=O)O)(c1ccccc1)c1ccccc1	1	99
5	Cc1ccc(CC2SC(=Nc3ccccc3)NC2=O)cc1 (stereo unspecified)	-12	102
6	Cc1cc(Br)ccc1NC(=O)C1CCN(C(=O)c2cccn2-c2cccnc2)CC1	3	110
7	CC(Sc1nnc(-c2ccco2)n1Cc1ccccc1)c1nc2ccccc2c(=O)[nH]1 (stereo unspecified)	-11	·
8	COC(=O)c1ccc(C)c(NC(=O)C(C)Sc2ccccc2)c1 (stereo unspecified)	15	107
9	Nc1cnc2cccc3c2c1-c1ccccc1C3=O	-60	-74*
10	CCCC(=O)c1ccc(-c2ccccc2)cc1	-18	104
11	O=C(Nc1ccc(Br)cn1)c1ccccc1	-8	102
12	Cc1cc(-c2nn3c(-c4ccccn4)nnc3s2)c2ccccc2n1	-40	103
13	COc1ccc(NC(=O)C(NS(=O)(=O)c2cccc3nsnc23)c2ccccc2)cc1 (stereo unspecified)	-98	103
14	Cc1cccc(N(C)Cc2nnc(-c3ccccc3Cl)o2)c1	-6	102
15	NC(=NCc1ccco1)NC(=O)c1ccc(Cl)cc1	·	100

No.	Sa growth 42C	Sa growth 42C second temp
1	109	75
2	·	·
3	77	101
4	90	88
5	·	·
6	·	·
7	79	90
8	100	94
9	79	88
10	·	·
11	87	88
12	·	·
13	110	85
14	90	95
15	99	92

# The list goes on.
No.	canonical_smiles	HCMV NEC inh	GIV-Gai inh
16	Cc1ccc(-c2cc(-c3nc4c5ccccc5ncn4n3)[nH]n2)c(C)c1	-20	104
17	COC(=O)C1CCN(S(=O)(=O)c2cccc3nsnc23)CC1	-114	101
18	COc1cc2[nH]c3c(=O)n(CCC(=O)N4CCN(c5ccccn5)CC4)cnc3c2cc1OC	0	104
19	CCOc1ccc(S(=O)(=O)NN=C2CCN(C(C)=O)CC2)cc1	-1	·
20	C=CCNC(=O)c1oc2ccc(S(=O)(=O)N3CCCCCC3)cc2c1C	-11	101
21	COc1ccc(-c2cn3c(n2)sc2cc(C(=O)NCCCN4CCN(C)CC4)ccc23)cc1	·	115
22	Cc1cc(/C=C(\C#N)S(=O)(=O)c2ccccc2)c(C)s1	-2	97
23	COc1ccc(Cl)cc1NC(=O)CSCc1ccco1	-2	101
24	CC1CCc2nn(CC(=O)NCCC3=CCCCC3)cc2C1 (stereo unspecified)	-12	103
25	COC(=O)Cn1c(=O)c2c(OC)ccnc2n(C)c1=O	9	101
26	O/N=C(/Cn1nnc(N2CCCC2)n1)c1ccc(Cl)cc1	-43	96
27	CC(C)CC(=O)NC(=S)Nc1ccc(S(=O)(=O)N=C(N)N)cc1	14	113
28	c1cn2c(NC3CCCC3)c(-c3ccc(N4CCOCC4)cc3)nc2cn1	-64	101
29	CCOC(=O)C1=C(CC)NC2=C(C(=O)CCC2)C1c1ccccc1 (stereo unspecified)	-36	102
30	COC(=O)/C(=C/c1ccc2c(c1)OCO2)NC(=O)c1ccc(C(C)(C)C)cc1	·	105

No.	Sa growth 42C	Sa growth 42C second temp
16	·	·
17	97	81
18	·	·
19	95	86
20	88	75
21	129	112
22	102	101
23	98	85
24	96	102
25	·	·
26	105	64
27	103	93
28	99	85
29	79	92
30	89	82

# Following part
No.	canonical_smiles	HCMV NEC inh	GIV-Gai inh
31	COc1cc(Cl)c(C)cc1Nc1c2c(nc3ccccc13)CCC2	-13	104
32	O=C(c1ccc2c(c1)S(=O)(=O)N=C1CCCCCN12)N1CCN(S(=O)(=O)c2ccc(F)c(F)c2)CC1	16	·
33	O=C(CN1C(=O)CCC1=O)Nc1nc(-c2cccs2)cs1	0	·
34	O=C(Nc1ccc2c(c1)OCC1CCCN21)C1=Cc2ccccc2OC1 (stereo unspecified)	-29	109
35	O=C(O)c1ccc(NC(=O)C2CC(=O)N(Cc3ccccc3)C(=Nc3ccc(F)cc3)S2)cc1 (stereo unspecified)	-24	103
36	CCn1cc(C(=O)NCCc2ccc(Cl)cc2)c(=O)c2cc(S(=O)(=O)N3CCC(C)CC3)ccc21	-25	105
37	CCOc1ccc(NC(=O)C2(c3cccs3)CCOCC2)cc1	·	99
38	O=C(Oc1ccccc1-c1nnco1)c1ccc(C(F)(F)F)cc1	-16	105
39	O=C(O)c1cc(-c2ccco2)nc2ccccc12	-32	·
40	Cc1ccc(Nc2ncnc3c2cnn3-c2ccc(C)cc2)cc1	·	98
41	COc1ccc(N(C(=O)Cc2ccc(OC)c(OC)c2)C2C=CS(=O)(=O)C2)cc1 (stereo unspecified)	-1	104
42	Cc1ccc(S(=O)(=O)c2c(Cl)sc(=O)n2C)cc1	4	103
43	O=C1C(=O)N(C2CCN(C(=O)C3CCCCC3)CC2)CCN1Cc1ccc(F)cc1	-7	96
44	CC(C)c1ccc2oc(-c3ccc(NC(=O)c4cccc(Br)c4)cc3)nc2c1	-17	105
45	CC(C(=O)Nc1ccccc1)N(c1ccccc1)S(C)(=O)=O (stereo unspecified)	·	106

No.	Sa growth 42C	Sa growth 42C second temp
31	93	85
32	85	88
33	111	96
34	101	95
35	·	·
36	100	88
37	113	90
38	96	91
39	123	86
40	91	100
41	110	94
42	105	100
43	·	·
44	85	56
45	82	88

# (cont.)
No.	canonical_smiles	HCMV NEC inh	GIV-Gai inh
46	C#CCOC(=O)c1sc2ccccc2c1Cl	0	96
47	N#Cc1ccc(C(O)COc2ncnc3cc(Cl)ccc23)cc1 (stereo unspecified)	2	101
48	C=CCOC(=O)c1sc(NC(=O)c2sc3ccccc3c2Cl)nc1C	-18	·
49	O=S1(=O)C=Cc2ccc(NC(=S)Nc3ccccc3C(F)(F)F)cc21	35	104
50	CC1=CC2CC1C1C(=O)N(C(C)C(=O)N3c4ccccc4CC3C)C(=O)C21 (stereo unspecified)	-10	·
51	CC(NC(=O)CCCc1nnc2n(C)c(=O)c3sccc3n12)c1ccccc1 (stereo unspecified)	-10	112
52	Cc1oc2cc3c(C(=O)OCCN(C)C)c(C)oc3cc2c1C(=O)OCCN(C)C	-2	103
53	O=S(=O)(Nc1ccc(CSc2ccccc2)cc1)c1ccc2c(c1)OCCO2	·	106
54	COc1cc2cc(CNc3ccccc3)c(=O)n(CC(=O)Nc3ccc(C)c(Cl)c3)c2cc1OC	·	120
55	O=C(Nc1ccc(F)cc1)NC1CCN(CC(=O)c2ccc(F)cc2)CC1	21	100
56	CCN(CC)C(=O)C(Sc1nnc(C2CC2)n1C1CC1)c1ccccc1 (stereo unspecified)	-22	·
57	COc1ccc(C(=O)CSc2c(C(C)C)cnc3c2c(=O)n(C)c(=O)n3C)cc1	·	103
58	Cc1[nH]c2ccccc2c1CN1CCc2ccccc2C1	-12	104
59	Nc1ccc(Cc2nc3ccc(C(=O)O)cc3[nH]2)cc1	-22	102
60	C/C(COc1ccc(-c2csnn2)cc1)=N\NC(N)=S	14	112

No.	Sa growth 42C	Sa growth 42C second temp
46	·	·
47	114	88
48	100	87
49	90	90
50	99	98
51	95	99
52	118	90
53	111	81
54	81	89
55	79	91
56	99	90
57	98	88
58	94	76
59	94	77
60	99	101

# The results go on.
No.	canonical_smiles	HCMV NEC inh	GIV-Gai inh
61	O=C1N=c2ccccc2=C1c1sc(=O)n(-c2ccccc2)c1O	-7	·
62	O=C(COc1ccc(F)cc1)N1CCC(c2nc3ccccc3s2)CC1	-18	103
63	CCOC(=O)c1ccc(NC(=O)c2cnn3c(=O)c4c(n(CC)c23)CCN(Cc2ccc(OC)cc2)C4)cc1	·	101
64	O=C(COC(=O)c1c2c(nc3ccccc13)CCCC2)Nc1nc2ccccc2s1	-11	·
65	COc1cc(CCC(C)NCc2ccccc2)ccc1O (stereo unspecified)	-10	95
66	O=C(c1oc(=O)c2ccccc2c1-c1ccccc1)N1CCC(O)CC1	0	104
67	Cc1cccc(N2CCN(S(=O)(=O)c3ccc(-c4cnc(C5CC5)o4)cc3)CC2)c1C	·	100
68	CCCCCS(=O)(=O)c1oc(-c2cccs2)nc1S(=O)(=O)c1ccc(C)cc1	-16	109
69	Cc1cccc(CSC2=NCCN2C(=O)c2cccs2)c1	-8	104
70	CCc1ccc(NC(=O)Nc2cn(C)c(=O)c3ccccc23)cc1	·	104
71	CC(C)C(=O)Nc1cnc2ccccc2c1	-15	·
72	O=C(OCC1C(COC(=O)C2CC2)C1(Cl)Cl)C1CC1 (stereo unspecified)	3	·
73	Cc1cc(C)nc(NC(=O)c2c(C)nc3sccn23)c1	-13	104
74	CC(C)COc1ccc(C(=O)NCC2OCCc3ccccc32)cc1 (stereo unspecified)	-16	106
75	COc1ccccc1CN1CC(C(=O)NC2CCCCC2)CC1=O (stereo unspecified)	·	102
76	CCOc1ccc(CCNc2ccc3nncn3n2)cc1OCC	-3	97

No.	Sa growth 42C	Sa growth 42C second temp
61	107	85
62	·	·
63	74	85
64	100	90
65	98	81
66	106	83
67	94	81
68	88	83
69	81	74
70	94	96
71	111	84
72	73	91
73	·	·
74	94	96
75	128	84
76	92	86

# Three structures out of the list, sorted by molar mass, falling.
No.	canonical_smiles	HCMV NEC inh	GIV-Gai inh
74	CC(C)COc1ccc(C(=O)NCC2OCCc3ccccc32)cc1 (stereo unspecified)	-16	106
61	O=C1N=c2ccccc2=C1c1sc(=O)n(-c2ccccc2)c1O	-7	·
70	CCc1ccc(NC(=O)Nc2cn(C)c(=O)c3ccccc23)cc1	·	104

No.	Sa growth 42C	Sa growth 42C second temp
74	94	96
61	107	85
70	94	96
